Screens deposited in PubChem by several laboratories.
Beta2AR agonist = human beta-2 adrenergic receptor agonism by FAP. AID 504454. response, % (test concentration not listed). Am2.2-beta2AR cells, FAP receptor internalization, flow cytometry; reference of the scale not given here. 340,000 compounds, 0.43% hits;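 active means response above a set limit, near 3 SD of response in nonfluorescent compounds, cut at about 42% in these data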;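 further: stock transfer was 100 nL into about 11 µL; a reference agonist was the positive control; negative values mostly stem from fluorescent compounds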
Target sequence (P07550 whole entry, looked up): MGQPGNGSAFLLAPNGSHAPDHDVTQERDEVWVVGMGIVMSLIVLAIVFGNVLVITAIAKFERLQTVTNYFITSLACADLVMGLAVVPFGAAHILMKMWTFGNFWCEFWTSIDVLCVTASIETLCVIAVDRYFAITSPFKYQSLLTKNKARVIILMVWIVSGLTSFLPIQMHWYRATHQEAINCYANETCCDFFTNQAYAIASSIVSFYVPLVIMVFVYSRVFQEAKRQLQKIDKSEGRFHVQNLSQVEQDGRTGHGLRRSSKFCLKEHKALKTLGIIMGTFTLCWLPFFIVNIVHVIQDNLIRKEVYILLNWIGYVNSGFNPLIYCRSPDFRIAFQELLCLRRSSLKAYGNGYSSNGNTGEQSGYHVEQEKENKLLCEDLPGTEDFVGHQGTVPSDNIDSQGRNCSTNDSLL
Calb FLC = affects C. albicans growth with fluconazole. C. albicans CaCi-2 (fluconazole-resistant clinical isolate) + fluconazole, Alamar Blue growth, 48 h. 300,000 compounds, 0.57% hits. growth inhibition, % (no concentration beside the values). AID 1979;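 active means most replicates above 75%; inconclusive means exactly half above 75%; inactive means most below 75%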;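 further: all wells also contain fluconazole at 8 µg/ml as a sub-toxic cotreatment; 0% = median of DMSO wells and 100% = median of geldanamycin control wells; wells of about 8 µL received 7.5 nL stock; the first replicate is given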
LANA-H2B inh = blocks KSHV LANA binding to histone H2A/H2B; cell-free LANA-H2A/H2B peptide, fluorescence polarization; AID 2629; Q9QR71; inhibition, % (no concentration beside the values); 320,000 compounds, 0.6% hits; in the data active means inhibition mostly above about 10%, no sharp cut-off; inactive means mostly below about 6.7%;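 further: stock transfer was 7.5 nL into about 10 µL; 0% = median of vehicle wells and 100% = median of positive control wells; one replicate is shown; the record names a cut of 25% in any replicate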
RanGTP-Imp inh = inhibitors of RanGTP-importin-beta interaction, primary screen, biochemical, FRET, CFP-Ran, YFP-importin-beta, homogeneous. 300,000 compounds, 1.1% hits. cell-free CFP-Ran/YFP-importin-beta FRET ratio. inhibition, % (no concentration beside the values). AID 2216;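 active means most replicates above 15%; inconclusive means exactly half above 15%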;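 further: 0% = DMSO wells and 100% = Ran loaded with GDP instead of GTP; wells of about 40 µL received 100 nL stock; the first replicate is given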
HNF4A DNA FP = change in binding of human HNF4 alpha to DNA. P41235. HNF4a-FITC DNA binding, fluorescence polarization, 1 h. activity change, % at 10 µM. 360,000 compounds, 0.3% hits. AID 1224865; in the data active means activity change above about 30%, passing the limit was not always enough;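 further: controls were the assay level and a saturating level of protein; the project sought stronger binding though the title names inhibitors; some compounds called inactive have numbers as strong as hits; positive values seem to mean higher polarization but the record does not say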
Target sequence (P41235 whole entry, looked up): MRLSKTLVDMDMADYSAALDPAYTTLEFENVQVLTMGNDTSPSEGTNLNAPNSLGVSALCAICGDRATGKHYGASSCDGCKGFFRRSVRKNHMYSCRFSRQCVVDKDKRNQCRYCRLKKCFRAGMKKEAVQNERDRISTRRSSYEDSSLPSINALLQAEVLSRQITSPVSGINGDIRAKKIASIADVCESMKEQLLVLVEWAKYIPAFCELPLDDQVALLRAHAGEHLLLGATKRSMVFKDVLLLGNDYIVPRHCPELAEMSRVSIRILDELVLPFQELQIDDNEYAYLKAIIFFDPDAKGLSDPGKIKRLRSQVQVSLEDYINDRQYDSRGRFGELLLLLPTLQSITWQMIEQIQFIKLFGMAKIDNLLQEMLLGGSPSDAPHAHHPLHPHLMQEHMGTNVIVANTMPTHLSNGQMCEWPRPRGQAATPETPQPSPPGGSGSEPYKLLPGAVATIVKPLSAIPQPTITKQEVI
Vif A3G = HIV-1 Vif–A3G interaction blockers – biochemical, TR-FRET, GST-Vif 1-94, biotin-A3G peptide, dose response retest, primary screen (AID 1117319); TR-FRET GST-Vif / biotin-A3G peptide binding; higher % means a stronger effect; test concentration not given here; strong numbers were not always called active; 260,000 compounds, 0.57% hits; one-dose inhibition, %; IC50 in µM for titrated hits;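 active means above the screen mean plus three standard deviations and confirmed in dose response; inconclusive means results disagree or hit not tested in dose response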;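 further: Vif residues 1-94 fused to GST binding biotinylated APOBEC3G peptide 110-148; 0% = full assay without inhibitor and 100% = GST in place of GST-Vif; retest series ran down from 100 µM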
ALR H2O2 inh = human ALR oxidase inhibition via reduced H2O2; P55789; purified ALR, DTT oxidation, H2O2 HRP-luminol luminescence; inhibition, % (test concentration not listed); 290,000 compounds, 3.8% hits; AID 485317;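 active means mean and each replicate at 75% or more; inconclusive means only one of the two met; inactive means neither met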;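 further: stock transfer was 7.5 nL into about 7.5 µL; 0% = neutral wells and 100% = wells with inactivated enzyme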
Target sequence (P55789 whole entry, looked up): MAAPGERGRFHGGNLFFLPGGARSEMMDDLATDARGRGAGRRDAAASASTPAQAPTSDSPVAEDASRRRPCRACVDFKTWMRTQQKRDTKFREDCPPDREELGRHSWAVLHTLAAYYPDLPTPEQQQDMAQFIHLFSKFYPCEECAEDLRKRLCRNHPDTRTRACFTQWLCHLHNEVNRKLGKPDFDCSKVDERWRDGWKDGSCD
* = called active by the depositor; ? = inconclusive; · = no result given.

SMILES	Beta2AR agonist	Calb FLC	LANA-H2B inh	RanGTP-Imp inh	HNF4A DNA FP	Vif A3G	ALR H2O2 inh
Cc1ccc(/C=C/C(=O)O)cc1S(=O)(=O)NCC1CCCO1 (stereo not given)	0	3	0.3	-1.4	-3.3	-3%	2
Cc1ccc(CNC(=O)C2CCN(S(=O)(=O)N3CCC4(CC3)OCCO4)CC2)cc1	-7	-16	-0.3	-1.4	0.4	9%	-28
C/C(CC(=O)N1CCN(C=O)CC1)=N\NC(=O)c1ccc(Br)cc1	-2	-12	-0.3	3.7	-3.1	·	13
CCOC(=O)c1nnc(-c2ccccc2)nc1NCc1ccccc1	-4	11	4.8	1.8	-2.4	0%	-11
CN(C)CC(C)(C)CNC(=S)Nc1cc(S(=O)(=O)N2CCOCC2)ccc1Cl	3	-11	2.6	-3.1	-4.5	22%	14
CN(C)S(=O)(=O)c1cccc(C(=O)NC2CCCc3ccccc32)c1 (stereo not given)	2	-9	4.7	0.6	-12	-8%	-4
O=C1C2C3C=CC(C3=C3CCCCC3)C2C(=O)N1Cc1ccccc1 (stereo not given)	-12	-4	-9.3	-1.0	-0.2	-5%	1
C=CCCCOc1ccc(C(=O)O)cc1	-2	17	1.7	·	0.3	-4%	-15
Cc1ccc(NC(=O)[C@H](C)NC(=O)C2CCN(C(=O)[C@@H](N)CC(C)C)CC2)cc1	3	4	-2.8	-1.9	2.0	-7%	-18
C/C=C1\NC(=O)[C@H](CC(N)=O)N(C)C(=O)C([C@@H](C)O)NC(=O)C(CCCc2ccc(OC)cc2)NC(=O)[C@H](C(C)C)NC(=O)/C(=C\C)NC(=O)[C@H](O)[C@@H](C[C@@H](O)CCCCCCC)NC(=O)[C@H](C)NC(=O)CN(C)C(=O)[C@H](CCC(N)=O)NC1=O (stereo not given in full)	-4	·	·	·	-0.1	5%	·
O=c1ccn(Cc2ccccc2)c(=O)n1Cc1ccccc1	8	2	-0.5	-3.3	4.0	-5%	-24
COc1ccc(Nc2nc(NCc3ccco3)nc(N3CCOCC3)n2)cc1	5	1	-0.8	1.8	1.8	-9%	-1
O=C(NCc1ccccc1Cl)C1CCCN1S(=O)(=O)c1ccc(F)cc1 (stereo not given)	-5	0	1.3	0.0	-4.8	·	-17
Nc1cc(=O)[nH]c(SCC(=O)NCCC2=CCCCC2)n1	-8	·	1.3	·	-1.2	7%	-6
CCc1nnc(NC(=O)CSc2nc(-c3ccccc3)cc(-c3ccc(F)cc3)c2C#N)s1	-10	-8	4.2	-3.1	-1.0	2%	1
Cc1nc(N2CCN(C)CC2)c2c3c(sc2n1)CCCC3	-8	-2	1.0	-1.8	0.0	·	-6
Cn1c(CCC(N)=O)nnc1SCC(=O)Nc1cc(S(=O)(=O)N2CCCC2)ccc1Cl	-4	·	·	·	-4.8	3%	·
CCCC(=O)Nc1c2c(nn1-c1cccc(Cl)c1)CS(=O)(=O)C2	3	34	-7.1	?	-4.5	4%	-3
CN1CCN(S(=O)(=O)c2cc([N+](=O)[O-])ccc2N2CCCCCC2)CC1	22	-3	-0.9	-3.5	3.7	-3%	1
CCN(CC)C(=O)CSc1nnc(COc2ccccc2)n1CC	-6	-4	·	2.4	0.0	-2%	-6
CCn1c(SCC(=O)Nc2ccc(C(C)=O)cc2)nc2ccccc21	0	-3	-4.5	-3.0	5.0	26%	-1
COc1ccc(N/C(N)=N/c2nc(CSc3nnc(C)s3)cc(=O)[nH]2)cc1	-21	23	5.5	1.9	-2.6	10%	-2
CC(C)(C)NC(=O)CCn1nc(-c2ccc(Cl)cc2)c2ccccc2c1=O	-4	-13	-2.3	-0.4	-0.3	-4%	-4
Cc1cccc(N2C(=O)N3[C@H](c4ccc(Cl)cc4)[C@@H]4C(=O)N(C5CCCCC5)C(=O)[C@@H]4[C@]3(Cc3ccc(Cl)cc3)C2=O)c1	4	6	-4.2	8.9	-2.5	·	·
COc1cccc(=O)c2c(C)n(C)c(C)c12	4	-1	0.0	-3.6	-2.2	?	-15
CC(=O)N(CCCN(C)C)CCC(C)CCC=C(C)C (stereo not given)	0	-15	4.0	1.8	1.2	0%	2
Cc1cc(Br)ccc1NC(=O)CN(C)C(=O)CCSc1ccc(F)cc1	0	4	0.0	·	-1.9	·	-1
Cc1ccc(S(=O)(=O)NC2c3cccc4cccc(c34)C2Sc2n[nH]c(N)n2)cc1 (stereo not given)	-4	8	-4.7	2.1	2.5	·	·
CCOc1ccccc1NC(=O)Cn1cnc2c(cnn2-c2ccc(C)c(C)c2)c1=O	-3	-3	-2.3	-2.6	4.3	-11%	-21
CCOc1ccccc1NC(=O)CSc1nnc(-c2cnccn2)n1C	4	20	2.9	1.9	2.2	-2%	-17
CCOC(=O)COc1ccc(S(=O)(=O)Nc2ccc(C)cc2)cc1	6	-1	-2.2	-0.1	0.8	-15%	-7
COc1cc(CNc2ccc3[nH]c(=O)[nH]c3c2)ccc1OCc1ccc(F)cc1Cl	10	-5	-0.2	4.6	1.4	-7%	30
CCN1CCN(C(=O)c2ccc(C)c(S(=O)(=O)Nc3cccc(C)c3)c2)CC1	-2	-6	-6.2	3.0	-3.7	·	-6
O=C(CSc1nc2ccccc2s1)N1CCOCC1	-6	-15	2.2	0.0	-2.5	0%	97*
CCOC(=O)C1CCCN(Cc2cccc(Cl)c2)C1 (stereo not given)	-3	-12	-3.9	0.8	-4.0	5%	-4
COc1ccc(-c2nn(-c3ccccc3)cc2/C=C/C(=O)OCC(=O)Nc2ccccc2C#N)cc1	14	19	-6.7	1.9	1.1	-8%	-9
Cc1ccc(-c2nc(C#N)c(NCCCn3ccnc3)o2)cc1	5	-17	-3.9	-2.8	-2.4	5%	41
O=C1ON=C(c2cccc([N+](=O)[O-])c2)/C1=C/c1ccc(O)cc1	53*	0	-3.4	2.4	-1.3	·	61
COc1ccccc1-c1coc2cc(OC(=O)/C=C/c3ccccc3)ccc2c1=O	8	2	1.7	-2.5	0.1	4%	0
CC(C)CCNC1=NCCCCC1	2	10	-14	-1.9	-1.4	3%	-6
COc1ccc(Cn2c(C)cc3c(c2=O)C(c2cccs2)C(C#N)=C(N)O3)cc1OC (stereo not given)	1	-16	-0.1	-0.6	3.0	-1%	-5
Cc1ccc(NC(/C=C/N(C)C)=C/C(=O)C(F)(F)F)c(C)c1	7	-5	-0.1	1.7	1.8	·	-4
CCc1ccccc1-n1cnc2cc(C(=O)O)ccc21	1	-9	15	3.8	0.6	0%	·
O=C(COC(=O)c1ccc(NS(=O)(=O)c2ccc(Br)s2)cc1)NC1CCCC1	-3	-13	1.1	-0.7	-3.3	10%	0
Cc1ccc(NC(=O)CSc2nnc(-c3ccco3)o2)c(C)c1	9	1	3.5	-1.0	3.6	-5%	-3
Fc1ccc(CN2CCCN(C(=S)Nc3ccc(F)cc3)CC2)cc1	3	-2	-6.6	-2.4	-3.2	27%	4
O=C(N/C(=C/c1cccs1)C(=O)N1CCOCC1)c1ccco1	0	-2	1.2	-1.9	-2.0	-2%	1
O=C1NCC(Nc2ccccc2)C(=O)N1 (stereo not given)	-3	·	·	·	1.6	-1%	·
COc1ccc(Br)cc1/C=N/n1c(C)nnc1C	5	2	2.4	-5.2	-1.8	1%	-5
CC(=O)Cn1c(=O)oc2ccccc21	4	1	-8.7	3.0	-1.5	1%	·
CC1CN(S(=O)(=O)c2cccc(C(F)(F)F)c2)CN1C(=O)N1CCOCC1 (stereo not given)	5	0	-6.9	2.0	-0.3	-3%	-2
O=C(c1cccc(F)c1)N1CCCC(C(=O)N2CCCC2)C1 (stereo not given)	6	-8	-2.8	-3.4	-0.8	-4%	-6
COc1ccc(CNC(=O)COC(=O)c2cccnc2Nc2cccc(C(F)(F)F)c2)cc1	-9	0	0.2	-1.9	1.0	2%	-2
CCOC(=O)N1CCN(c2cc(=O)n(-c3cccc(C)c3)c(=O)[nH]2)CC1	2	15	3.5	10	1.8	-2%	18
Cc1ccc(S(=O)(=O)NC(C)CCc2ccccc2)cc1C(N)=O (stereo not given)	10	24	2.4	4.7	-1.3	·	-37
CCOc1ccc(NC(=O)c2ccc(CSc3nnnn3C)cc2)cc1	1	-11	4.4	-1.0	0.9	3%	3
O=C(c1ccc(S(=O)(=O)Nc2ccccc2F)cc1)N1CCN(c2ccccc2O)CC1	14	-1	-1.1	2.0	-0.9	-1%	35
Cn1cc(S(=O)(=O)CC(=O)Nc2ccc(Br)cc2)c2ccccc21	-8	2	0.5	4.5	-2.2	19%	-5
CCN(CC(=O)NCc1cccs1)CC(=O)Nc1c(Cl)ccc(C)c1Cl	-4	·	-0.8	·	-0.2	·	·
CCCn1cc(S(=O)(=O)c2ccc(C)cc2)c(=O)c2cc(OCC)ccc21	1	-6	-1.8	2.6	-0.1	9%	-14

(more compounds)
SMILES	Beta2AR agonist	Calb FLC	LANA-H2B inh	RanGTP-Imp inh	HNF4A DNA FP	Vif A3G	ALR H2O2 inh
COc1ccc(C2CC(c3cccs3)=NN2C(=O)CCl)cc1OC (stereo not given)	13	21	-1.4	-3.6	5.5	·	39
Cc1ccc(C(=O)OCC(=O)Nc2cccc(S(=O)(=O)N3CCOCC3)c2)o1	7	·	9.0	·	-0.2	·	1
CC(=O)c1cccc(NC(=O)C2CCCN(S(=O)(=O)c3cccc4nonc34)C2)c1 (stereo not given)	-2	-3	0.3	-1.4	-4.7	·	9
CC(=O)c1cccc(NC(=O)N2CCCc3ccccc32)c1	-3	-26	-1.1	4.8	2.6	4%	1
Cn1c(SCc2ccc(C#N)cc2Cl)nc2ccccc21	4	43	-0.4	0.0	1.7	1%	96*
CC(=C/c1ccccc1)/C=N/n1c(-c2ccco2)n[nH]c1=S	-8	45	0.8	-3.2	5.3	-1%	97*
COc1ccccc1NC(=O)Cc1nnc(SCC(=O)NC2CCCCC2C)n1C (stereo not given)	5	0	1.3	15	-1.4	·	0
COC(=O)CCNc1ccc2c(c1)OCCO2	-6	·	0.8	-0.9	0.6	15%	65
S=c1[nH]ncn1NCc1cccc(Br)c1	15	-4	2.3	8.8	-1.1	·	-3
Cc1cccc(NC(=S)N(CCCN2CCOCC2)C(C)c2cc3ccccc3o2)c1C (stereo not given)	4	-10	-0.8	2.2	2.8	-5%	·
CC(=O)c1cccc(NC(=O)CC2CCCC2)c1	0	-2	-5.1	-3.6	1.7	·	3
Cc1ccc(S(=O)(=O)N2CCN(C(=O)C(F)(F)F)C2c2ccc(N(C)C)cc2)cc1 (stereo not given)	-4	35	0.6	4.9	1.5	·	-2
O=C(Nc1nc(-c2ccc(S(=O)(=O)N3CCCCCC3)cc2)cs1)c1ccccc1	8	-9	-3.2	-0.8	-2.5	-14%	-9
CCOc1ccc(NC(=O)c2ccc(Br)o2)c([N+](=O)[O-])c1	-6	-2	3.3	-5.5	13	-3%	3
O/C(=C\c1ccc2ccccc2n1)c1ccc(O)cc1O	-9	2	-6.7	-3.3	65*	5%	-19
O=C(CCc1nnc2ccc(N3CCCC3)nn12)Nc1cc(F)ccc1F	-8	10	3.0	3.0	2.9	·	-1

Single records (already shown). Values in the order: Beta2AR agonist, Calb FLC, LANA-H2B inh, RanGTP-Imp inh, HNF4A DNA FP, Vif A3G, ALR H2O2 inh
Profile of Cn1c(SCc2ccc(C#N)cc2Cl)nc2ccccc21 = 4, 43, -0.4, 0.0, 1.7, 1%, 96*
Profile of COC(=O)CCNc1ccc2c(c1)OCCO2 = -6, ·, 0.8, -0.9, 0.6, 15%, 65
Profile of O=C(Nc1nc(-c2ccc(S(=O)(=O)N3CCCCCC3)cc2)cs1)c1ccccc1 = 8, -9, -3.2, -0.8, -2.5, -14%, -9

This is a random part of the collection (roughly 6.3% active in at least one column).
